Source: PubChem BioAssay
MgrA-DNA mod: modulators of Staphylococcus aureus MgrA DNA binding; fluorescence polarization; inhibition, %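 (about 10 µg/mL by stock and volumes)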; 84,000 compounds, 0.13% hits;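 active = above 50% in either of two replicates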;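 note: 0% = protein plus DNA without compound and 100% = DNA alone without protein; higher means less MgrA bound to DNA so lower polarization; one replicate is shown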
Sa helicase inh: blocks Staphylococcus aureus DNA helicase. 120,000 compounds, 0.05% hits. AID 485395. inhibition, %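 (tested at about 80 µM)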. purified S. aureus helicase, fluorescence unwinding assay; about half of the hits fall short of the stated cut;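 active = both duplicates at 50% or more, or one of them with a favoured structure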;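 note: 0% = mean of negative control wells and 100% = mean of positive control wells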
Starred values were filed as active, the others as inactive; x = no result given. A portion of the library; the hit share may differ from the screen's.

mol | Sa helicase inh | MgrA-DNA mod
NC(=O)CN1C(=O)CC(c2ccccc2)Sc2ccccc21 (stereo not given) | 12.0 | 0.3
CC(C)[C@H](NS(=O)(=O)c1cccc(C(F)(F)F)c1)C(=O)OCc1nnc(-c2ccccc2)o1 | -3.0 | x
O=C1c2[nH]nc(-c3ccccc3O)c2C(c2ccccc2)N1CCc1ccccc1 (stereo not given) | 5.0 | -0.7
Cc1cc(C)n(-c2n[nH]c(=S)c3ccccc23)n1 | 3.0 | -9.2
CSC(=NS(=O)(=O)c1ccc(C)cc1)SC | 14.0 | -1.7
CC(C(O)c1ccccc1)N(C)C(=O)c1ccccc1 (stereo not given) | -28.0 | 3.8
N=C1C(c2nc3ccccc3s2)=C(O)CN1N1C(=O)c2ccccc2C1=O | 1.0 | x
FC(F)(F)c1cnc(NN=C2CCSCC2)c(Cl)c1 | -12.0 | x
CC(Sc1ccc(S(=O)(=O)N2CCN(C)CC2)cn1)C(=O)NC1(C#N)CCCCC1 (stereo not given) | -16.0 | x
CC(=O)N1CCN(S(=O)(=O)c2ccc(C)cc2)C1C (stereo not given) | -1.0 | -0.9
COC(=O)/C=C\C(=O)Nc1ccc(NC(C)=O)cc1 | 10.0 | x
O=C(O)c1cccc(N2CCCC2)c1 | 6.0 | x
CCOc1ccc(CCNC(=O)CCc2c(C)nc3nc[nH]n3c2=O)cc1OCC | -24.0 | x
COC(=O)c1sccc1-n1c(C)ccc1C | x | -0.3
COC(=O)/C=C1\Nc2ccccc2NC1=O | x | 1.4
O=C(Cc1c(C(=O)O)[nH]c2ccccc12)NCCN1CCN(c2cccc(Cl)c2)CC1 | 6.0 | x
CC(C)=CC(=O)Nc1nnc(-c2ccccc2)s1 | 19.0 | 5.6
O=C(Cc1ccccc1)N1CCc2ccccc21 | -2.0 | x
CC1C/C(=N\O)C(C(C)C)C/C1=N/O (stereo not given) | 2.0 | -2.9
N#Cc1c(-c2cccs2)[nH]c(=S)[nH]c1=O | x | 7.7
NC1=NC(c2ccncc2)n2c(nc3ccccc32)N1 (stereo not given) | 11.0 | -0.8
CC(C)/C=C(/C(=O)c1ccc(Cl)cc1Cl)n1cncn1 | 2.0 | -2.3
O=C(COc1ccc2c(c1)OCO2)NC1CCCc2ccccc21 (stereo not given) | 17.0 | x
O=S(=O)(O)c1ccc(Nc2ncnc3ccccc23)cc1 | x | -2.7
CCCC(C(N)=O)C1=NC2(CCCCC2)Cc2ccccc21 (stereo not given) | -3.0 | -0.5
CCOC(=O)C1CCN(C(=O)c2ccc(NS(=O)(=O)c3ccc(OCC)cc3)cc2)CC1 | -10.0 | x
O=c1[nH]c(SCCO)nc2c1cnn2-c1ccc(F)cc1 | x | -1.0
CC1(C)OC(C(N)=O)C(C(N)=O)O1 (stereo not given) | 11.0 | x
COc1nc(Nc2ccccc2)nc(NC(C)C)n1 | 3.0 | -2.2
CCN(CC)c1ccc2cc(C#N)c(=O)oc2c1 | -7.0 | x
COc1cccc(C(=O)NCc2ccccc2OC)c1 | 8.0 | x
CCn1nc(C(=O)Nc2sccc2C(N)=O)c2ccccc2c1=O | 7.0 | x
O=[N+]([O-])c1c(Cl)cc(O)c2c1C1C=CCC1C(c1ccccc1)N2 (stereo not given) | x | 3.4
Cc1ccc(S(=O)(=O)Nc2c[nH]c(=O)[nH]c2=O)cc1 | 3.0 | 0.2
CCOC(=O)c1cc(-c2ccccc2)n(CC(=O)N2CCCC2)c1C | 11.0 | x
CCSc1nnc(-c2ccc(N(CC)CC)cc2)o1 | 17.0 | x
CC1C(c2ccccc2)=[N+]([O-])C2(CCCC2)N1O (stereo not given) | 7.0 | x
C=CCn1c(C)cc(C(=O)COC(=O)Cc2sc(N)nc2-c2ccc(C)cc2)c1C | -5.0 | x
COc1cc(OC)cc(C(=O)OCCN2C(=O)c3cccc4c(N5CCOCC5)ccc(c34)C2=O)c1 | x | -1.8
CCC(C)(C(=O)NC1CCCCC1)N(C(C)=O)c1ccccc1 (stereo not given) | 7.0 | x
CCC(C)NC(=O)c1cc2c(s1)-c1ccccc1SC2 (stereo not given) | -1.0 | x
O=C(O)CCCc1nc(-c2ccc(Cl)cc2)no1 | x | -3.0
CC(=O)n1nc(C)c(CS(=O)(=O)c2ccccc2)c1C | x | -2.4
C=CCn1c(N)c(S(=O)(=O)c2cccc(C)c2)c2nc3ccccc3nc21 | 5.0 | x
CC(C(=O)Nc1nccs1)C1SC(=O)NC1=O (stereo not given) | 0.0 | -1.4
CCCNCc1nc(-c2cccc(C)c2)no1 | 1.0 | x
COc1ccc(C(C(=O)NC2CCCC2)N(Cc2ccc(C)cc2)C(=O)c2ccn[nH]2)cc1OC (stereo not given) | -5.0 | 0.0
CCn1c(C)nc2cc(NC(=O)C(F)(F)F)ccc21 | -1.0 | x
CCOC(=O)C1=C(C)NC2=C(C(=O)CC(C)(C)C2)C1c1ccc2c(c1)OCCO2 (stereo not given) | 15.0 | x
COc1ccc(-n2c(C)nnc2SCC(=O)NCc2cc3cc(Cl)ccc3n2C)cc1 | 0.0 | -2.8
FC(F)(F)Oc1ccc2c(c1)c1nc3ccccc3nc1n2Cc1ccccn1 | x | -0.7
Cc1oc(C(N)=O)nc1-c1ccccc1 | x | -1.4
O=C(O)c1ccc(Sc2ccccc2C(=O)O)c(C(=O)O)c1 | 25.0 | x
COc1cc2nc(N(C)C)nc(N)c2cc1OC | 44.0* | x
CC(Oc1ccc2c(=O)c(-c3ccc(Cl)cc3)coc2c1)C(=O)O (stereo not given) | 4.0 | 7.7
CCOC(=O)C=C1CCN(c2ncc(C(F)(F)F)cc2Cl)CC1 | x | 1.4
COc1cccc(COC(=O)c2ccc3c(c2)C(=O)N(Cc2ccncc2)C3=O)c1OC | 5.0 | x
CC(C(=O)Nc1ccc(F)c(F)c1F)N1C(=O)c2ccccc2S1(=O)=O (stereo not given) | -2.0 | x
Cc1nc2nc(NC(=O)C(C)(C)C)[nH]n2c(=O)c1Cc1ccccc1 | -4.0 | -2.6
COc1ccc(C2(CNC(=S)Nc3ccccc3)CCOCC2)cc1 | 4.0 | -0.8

Following part:
mol | Sa helicase inh | MgrA-DNA mod
S=C(NCc1ccco1)SCc1cn2cccnc2n1 | -8.0 | x
O=C(Nc1ccc2ccccc2c1)C1CCC1 | -2.0 | x
O=C(NCCCN1CCCCCC1)c1ccc(N2CCCC2=O)cc1 | -17.0 | x
CCCSc1ncnc2c1oc1ccccc12 | 6.0 | x
COCc1ccccc1Cn1cnc2ccccc21 | 7.0 | 1.4
CC(=O)Oc1ccc2c(=O)c(Oc3cc(C)cc(C)c3)coc2c1 | 1.0 | 0.9
O=S(=O)(NNc1c(Cl)cncc1Cl)c1ccc2c(c1)OCC2 | 9.0 | x
COc1ccc(N2CCN(C(=NCCc3ccccc3)Nc3ccc(C(=O)O)cc3)CC2)cc1 | 1.0 | x
CCc1cccc2c1NC(=O)C21OCCO1 | 15.0 | 5.0
CCOC(=O)c1c(S(=O)(=O)Nc2ccc3c(c2)OCCO3)c(C)n(C)c1C | 5.0 | x
CSc1ccc(Cl)c(C(=O)OCC(=O)NCC2CCCCC2)c1 | -18.0 | -4.9
CCc1nc2ccccc2[nH]c1=O | x | 1.2
Cn1cc(NC(=O)NCCSc2c[nH]c3ccccc23)c2ccccc21 | 1.0 | x
CN1CCC(O)(c2ccccc2)CC1 | 7.0 | -2.0
COC(=O)C1=C(C)N=c2s/c(=C/c3ccco3)c(=O)n2C1c1ccc(OC)cc1 (stereo not given) | -3.0 | 0.4
Nc1ccc(C(=O)O)c2c(C(=O)O)cccc12 | x | 20.9
O=C(Nc1nnc(-c2ccc3c(c2)CCCC3)o1)c1ccc(NS(=O)(=O)c2ccc(F)cc2)cc1 | 8.0 | x
CCOC(=O)CCn1cnc2cc(Br)ccc2c1=O | 11.0 | x
COc1ccc(N2CCN(C(=O)c3ccc(NS(=O)(=O)c4ccc(F)c(F)c4)cc3)CC2)cc1 | -3.0 | x
Cc1nc(SC(C#N)Cc2ccccc2)c2ccccc2n1 (stereo not given) | -10.0 | x
CCOc1ccc(-n2c(=O)c3c4c(sc3n(Cc3cccnc3)c2=O)CCC4)cc1 | 18.0 | x
CC(=O)Nc1ccc(S(=O)(=O)NCCC(=O)Nc2nc(C)cs2)cc1 | 12.0 | x
Cc1noc(C)c1C(=O)N(C)Cc1ccccc1 | -16.0 | x
Cc1cc2nc(C)n(CCCNC(=O)NC34CC5CC(CC(C5)C3)C4)c2cc1C | 4.0 | -0.8
O=C(CSc1nc2ccccc2c(=O)[nH]1)c1ccccc1 | -17.0 | x
O=C(NC12CC3CC(CC(C3)C1)C2)N1CC2Cc3cccc(=O)n3C(C2)C1 (stereo not given) | 17.0 | 0.8
O=S(=O)(NCc1ccco1)c1ccc(Cl)cc1 | 9.0 | 0.5
COc1ccccc1C(=O)Nc1ccccc1SCc1cc(=O)n2nc(C3CC3)sc2n1 | 10.0 | x
Cc1cc(NCC2CCCO2)n2c(nc3ccccc32)c1C#N (stereo not given) | 15.0 | -0.8
CSc1ccc(C(=O)C(CC(=O)c2ccc(Cl)cc2)c2cccs2)cc1 (stereo not given) | x | 1.3
CCOC(=O)c1c(C)[nH]c(C)c1S(=O)(=O)N1CCCCC1 | 1.0 | x
O=C(CSc1ccc(F)cc1)Nc1ccc(C2SCCS2)cc1 | x | -1.1
O=C(Nc1ccc(C(=O)c2ccccc2)cc1)c1ccccc1 | -7.0 | x
NC(=O)c1cccn1Cc1ccccc1Cl | 5.0 | x
COCCNC(=O)c1cn(Cc2cccc3ccccc23)nn1 | 9.0 | -1.1
Cc1[nH]ncc1-c1ccccc1Cl | x | 0.9
CC1=C(C(=O)OCCOc2ccccc2)C(c2ccc([N+](=O)[O-])cc2)NC(=O)N1C (stereo not given) | x | 3.3
O=C(CON1C(=O)CCC1=O)Nc1cccc2ccccc12 | 4.0 | -0.2
O=C1CCCC/C1=N\Nc1ccc(CN2CCCCC2)cc1 | 2.0 | 2.2
O=C(CSc1ncccc1C(=O)N1CCC(Cc2ccccc2)CC1)c1ccccc1 | 2.0 | -0.5
COc1ccccc1N1CCN(CCCOc2cc(C)ccc2C(C)C)CC1 | 19.0 | -1.0
CCOC(=O)Nc1cc(C(=O)OC)ccc1C(=O)OC | x | -0.4
O=C1c2cccc3cccc(c23)C(=O)N1c1nc2ccccc2[nH]1 | x | -1.7
CN(CC(=O)O)S(=O)(=O)c1cccs1 | 18.0 | x
CC(C)CN1CC23C=CC(O2)C(C(=O)OC(C)C)C3C1=O (stereo not given) | 10.0 | x

Filtered by structure, the compounds so far with a nitro group on carbon
mol | Sa helicase inh | MgrA-DNA mod
O=[N+]([O-])c1c(Cl)cc(O)c2c1C1C=CCC1C(c1ccccc1)N2 (stereo not given) | x | 3.4
CC1=C(C(=O)OCCOc2ccccc2)C(c2ccc([N+](=O)[O-])cc2)NC(=O)N1C (stereo not given) | x | 3.3

Some of the entries above, reformatted.
Sa helicase inh	MgrA-DNA mod	Molecule
x	-1.7	O=C1c2cccc3cccc(c23)C(=O)N1c1nc2ccccc2[nH]1
18.0	x	CN(CC(=O)O)S(=O)(=O)c1cccs1
10.0	x	CC(C)CN1CC23C=CC(O2)C(C(=O)OC(C)C)C3C1=O (stereo not given)

(listing goes on)
mol | Sa helicase inh | MgrA-DNA mod
O=C1NC(=O)C(c2ccccc2)N1 (stereo not given) | x | 0.8
CC1CN(C(=O)/C=C/c2cccc3ccccc23)CC(C)O1 (stereo not given) | x | -1.6
c1ccc2c(NC3C4CC5CC(C4)CC3C5)nc(N3CCOCC3)nc2c1 (stereo not given) | -9.0 | x
O=C1CCC(NC(=O)OCc2ccccc2)(C(=O)OCc2ccccc2)O1 (stereo not given) | 2.0 | 3.0
O=C(CSC1=NCCS1)N1CCCC1 | -13.0 | 3.4
O=C(Nc1ccc(Br)cc1)c1c[nH]c2ccccc2c1=O | -19.0 | -0.9
Nc1ccc2nc(SCC(=O)n3c4c(c5ccccc53)CCCC4)sc2c1 | 31.0 | x
CC1(C)CSC(=Nc2cccc(C(F)(F)F)c2)N1C(=O)/C=C/c1ccco1 | -11.0 | x
COc1ccc(CN2CC(C(=O)NCCC(C)C)CC2=O)cc1 (stereo not given) | 4.0 | x
O=C(NN1C(=O)C2C3c4ccccc4C(c4ccccc43)C2C1=O)c1cccnc1 (stereo not given) | 4.0 | 1.8
CC(C)CNS(=O)(=O)c1ccc(F)cc1 | 4.0 | -1.8
CC1CC1C(=O)Nc1ccc2[nH]ncc2c1 (stereo not given) | 5.0 | 0.0
CN1CCN(c2nc(-c3ccc(Cl)s3)cs2)CC1 | -5.0 | x
N#C/C(=C\C1=C(N2CCOCC2)C(=C/c2ccc(Cl)cc2Cl)/CC1)c1nnc(N2CCOCC2)n1-c1ccccc1 | -16.0 | x
O=C(Nc1cc(=O)[nH]c(=O)[nH]1)c1cccc(C(F)(F)F)c1 | -1.0 | x
Cc1cc(C)n(-c2ccc(C(=O)Nc3ccc4c(c3)OCCO4)cc2)n1 | 13.0 | -4.0
CCOC(=O)c1ccc2nc(/N=C/N(C)C)sc2c1 | x | -1.3
Cc1nn(C2CCS(=O)(=O)C2)c(C)c1CN(C)C(=O)c1ccc(S(=O)(=O)N(C)C)cc1 (stereo not given) | -2.0 | x
COC(=O)c1cc2c(s1)-c1ccccc1OC2 | 13.0 | 0.6
O=C(Cn1cccc1)N1CCN(Cc2ccccc2)CC1 | 11.0 | x
O=c1[nH]c(SCCO)nc2sc3c(c12)CCCC3 | -9.0 | x
CCOc1ccc(NC(=O)CC2C(=O)N(CC)C(=S)N2NC(=O)c2ccncc2)cc1 (stereo not given) | 21.0 | x
CN(Cc1ccccc1F)C(=O)c1ccccc1S(C)(=O)=O | -12.0 | x
C[C@@H]1C[C@H]2[C@@H]3C[C@H](F)C4=CC(=O)C=C[C@]4(C)[C@@]3(Cl)[C@@H](O)C[C@]2(C)[C@H]1C(=O)COC(=O)C(C)(C)C | x | 1.2
